From PubChem
nsP2pro inh: inhibitors of chikungunya virus nsP2 protease | Q8JUX6 | FRET peptide cleavage, nsP2pro, fluorescence 1 h | Potency, µM (doses to about 24.9 µM), for the others: top-dose activity change, negative = inhibition, hits mostly inhibitors | 31,000 compounds, 1.1% hits | AID 1964107; active means well fitted inhibition curve with a large enough effect; inconclusive means small, poorly fitted or top-dose-only effect; inactive means no such curve, though single readings can be large or run the other way; note: nearly all actives have a fitted effect of over 60% in size; a reference inhibitor and vehicle were the controls
Starred values were filed as active, the others as inactive; i = inactive; ? = inconclusive; & = joins results of further samples; [ ] = remark or other dose. % is set by controls: 0 for no effect and ±100 for the full control effect; potency is the fitted concentration of half-maximal effect.

No.	Molecule	nsP2pro inh
1	COc1c(C)cc(NC(=O)c2nn(Cc3ccc(F)cc3)c3c2CN(C(=O)c2ccc[nH]2)C[C@]3(C)C(N)=O)cc1C	9.9%[5.1 µM]
2	COCc1nc(CCNC(=O)NCCc2ccccc2)no1	-1.6%
3	Cc1n[nH]c(C)c1S(=O)(=O)N(CC(=O)NC(C)c1ccccc1)c1ccc(C(C)C)cc1 (configuration not stated)	-17.9%
4	COc1ccc(-c2cc(-c3ccncc3)cn3cncc23)cc1	i
5	CCN(C(=O)c1cccn(Cc2ccccc2C)c1=O)c1ccccc1	-8.7%
6	COC(=O)[C@]12CCC(C)(C)C[C@H]1[C@H]1C(=O)C=C3[C@@]4(C)C=C(C#N)C(=O)C(C)(C)[C@@H]4CC[C@@]3(C)[C@]1(C)CC2	?
7	COc1ccccc1-c1[nH]nc2ncc(C(=O)N3C[C@@H](C)O[C@@H](C)C3)nc12	-4.5%[39.2 µM]
8	COC1CCC(C(=O)N2CCC3(CC2)OC(=O)N(CCOc2ccccc2)C3(C)c2cccnc2)CC1 (configuration not stated)	3.1%
9	CC(C)N1CCN(C(=O)c2cc3cn(C4CC4)cc3s2)CC1	-7.4%
10	O[C@H]1CC[C@@H](Cc2cc(-c3ccccn3)on2)O[C@@H]1CN(Cc1ccccc1)Cc1ccccc1	i
11	COc1ccc2nc(-c3cccc(C)c3)sc2c1	-2.0%
12	CCCOc1ccc(-c2cc(C(F)(F)F)c(C#N)c(SCCC(=O)O)n2)cc1	-19.9%
13	CCN(CC)CCCNC(=O)c1ccc(-c2nc(CN3CCc4ccccc43)c(C)o2)cc1	37.2%[activator]
14	COc1cc(C(CO)CO[C@@H]2O[C@H](CO)[C@@H](O)[C@H](O)[C@H]2O)ccc1O (some centres not stated)	?
15	CCN(CC)CCOC(=O)C(Cc1cccc2ccccc12)CC1CCCO1 (configuration not stated)	-2.9%
16	C=CC(=O)N1CCN(c2nc(=O)n(-c3c(C)ccnc3C(C)C)c3nc(-c4c(O)cccc4F)c(F)cc23)[C@@H](C)C1	-1.1%
17	COc1cc(CNc2ccc3[nH]c(=O)[nH]c3c2)cc(Cl)c1OCc1ccccc1F	-11.3%
18	COc1ccc(N2CCN(c3oc(-c4ccccc4C)nc3S(=O)(=O)c3ccccc3)CC2)cc1	-18.8%
19	Cc1ccccc1NS(=O)(=O)c1ccc2c(c1)CCC(=O)N2	-1.7%
20	O=S(=O)(N[C@H]1CO[C@H]2[C@@H]1OC[C@@H]2n1nnnc1Oc1cccc(N2CCOCC2)c1)c1cccs1	-4.7%
21	CCN(C(=O)c1cc2c(Cl)nc3ccccc3c2s1)c1cccc(Cl)c1	-29.0%
22	O=C(O)CCC(=O)N1CC[C@@H]2[C@H]1C(=O)N(c1ccc(F)c(Cl)c1)C(=O)N2Cc1ccccc1	i
23	CC1CCC(NC(=O)CCc2cn(Cc3ccccc3Cl)c3ccccc23)CC1 (configuration not stated)	-20.5%
24	Cc1ccc(S(=O)(=O)N2CCC[C@H]2c2ccc(F)cc2)cc1	22.5%
25	C=C1C(=O)OC2C=C(C)CC/C=C(\CO)CC(O)C12 (configuration not stated)	7.1%
26	Cc1ccc(NCc2cccn2-c2nnc(N3CCC(C(=O)NCCc4ccc(Cl)cc4)CC3)s2)cc1	-20.8%
27	CCCCCCCCCC(=O)OCCN1CCN(CCCN2c3ccccc3Sc3ccc(C(F)(F)F)cc32)CC1	18.3%
28	Cc1cc(O)c(C(C)C)cc1O[C@@H]1O[C@H](CO)[C@@H](O)[C@H](O)[C@H]1O	8.2%
29	CC1CCCCN1CC(=O)N1CCCc2c1c(=O)oc1ccc(OCc3ccccc3)cc21 (configuration not stated)	?
30	Cc1ccc(S(=O)(=O)Nc2cnccc2C(=O)Nc2nc(-c3ccccc3F)cs2)cc1	i

Reformatted: three of the compounds above.
25. C=C1C(=O)OC2C=C(C)CC/C=C(\CO)CC(O)C12 (configuration not stated)
- nsP2pro inh: 7.1%
17. COc1cc(CNc2ccc3[nH]c(=O)[nH]c3c2)cc(Cl)c1OCc1ccccc1F
- nsP2pro inh: -11.3%
27. CCCCCCCCCC(=O)OCCN1CCN(CCCN2c3ccccc3Sc3ccc(C(F)(F)F)cc32)CC1
- nsP2pro inh: 18.3%

Next compounds.
No.	Molecule	nsP2pro inh
31	FC(F)(F)c1ccc(CN2CCC3(CC(c4cccc(C(F)(F)F)c4)=NO3)C2)cc1 (configuration not stated)	3.9%
32	COc1ccc(N2CCN(C(=O)c3cnc(N4CCCC4)nc3C)CC2)cc1	-26.7%
33	CNC(=O)CSc1nnc(NC(=O)Nc2ccccc2)s1	-11.5%
34	N#Cc1nc(NCC(F)F)c2ncn(-c3cc(F)cc(F)c3)c2n1	-0.2%
35	Fc1ccc(Nc2cc(-c3ccccc3)nc(-c3ccncc3)n2)cc1F	-11.8%
36	Cc1cccc(NC(=O)c2ccc(Cn3nc(N4CCN(c5ccccc5)CC4)ccc3=O)o2)c1C	-17.7%
37	CC(=O)Nc1cccc(S(=O)(=O)N2CCCN(S(=O)(=O)c3ccc4c(c3)OCCO4)CC2)c1	1.6%
38	Cc1ccc(NS(=O)(=O)c2cc3c(cc2C)OCC(=O)N3)cc1C	i
39	COc1ccc(-c2ccc3nc(-c4cccc(Br)c4)oc3c2)c(OC)c1OC	-6.6%
40	CC1(C)S[C@@H]2[C@H](NC(=O)[C@H](NC(=O)N3CCN(S(C)(=O)=O)C3=O)c3ccccc3)C(=O)N2[C@H]1C(=O)O	?
41	COc1ccc(C(=O)N2CCC[C@H]2c2nc(-c3ccccc3)no2)cc1	4.3%
42	CS(=O)(=O)N1CCC(OC2CCN(C(=O)Nc3ccccc3C(F)(F)F)CC2)CC1	-4.1%
43	Cc1c(P(=S)(c2ccccc2)c2ccccc2)[n+]2ccccc2n1CC(=O)c1ccccc1	-19.0%
44	Cc1cc2c(N3CCCC3)nc(N3CCCC3)nc2n1C	-23.3%
45	O=C(O)c1ccc(NC(=O)[C@H](Cc2ccc(O)cc2)NC(=O)c2ccccc2)cc1	11.9%
46	O=S(=O)(O)c1ccccc1	-0.8%
47	CC(C)(C)OC(=O)N[C@@H](Cc1ccc(O[S+](=O)([O-])c2cccc3cnccc23)cc1)C(=O)N1CCN(Cc2ccccc2)CC1	-0.3%
48	CCCc1oc2ccc(NS(=O)(=O)c3ccc(OCC)cc3)cc2c1C(=O)OCC	-10.7%
49	O=C(NCC(c1cccnc1)N1CCc2ccccc2C1)C(=O)Nc1ccc(F)cc1F (configuration not stated)	-5.2%
50	Cc1ccc(S(=O)(=O)c2cn(CC(=O)Nc3ccc4c(c3)OCO4)c3ccccc3c2=O)cc1C	-29.4%
51	CC(C)(C)NCC(O)COc1ccccc1C#N (configuration not stated)	-2.4%
52	CCC(=O)NCC1Cn2cccc2C(=O)N1Cc1ccccc1 (configuration not stated)	-5.6%
53	COCC1OC(OC(C)(C)C2CCC3(C)C=C(C4CCC5C4(C)CC(O)C4OC(C(C)(C)O)CCC45C)CCC3O2)C(NC(C)=O)C(O)C1O (configuration not stated)	-3.1%[10 µM]
54	CC(C)C(=O)Nc1ccc2nc(SCC(=O)N3CCc4ccccc43)sc2c1	-22.9%
55	O=C(NN1C(=O)[C@@H]2[C@@H]3C=C[C@@H]([C@H]4C[C@@H]34)[C@@H]2C1=O)c1ccc(C(F)(F)F)cc1	-11.7%
56	Cc1cc(C)nc(NC(=S)N2CCN(c3cc(Cl)cc(Cl)c3)CC2)c1	i
57	CC(c1n[nH]c(=O)n1CCC(=O)O)n1cccn1 (configuration not stated)	0.2%
58	Cc1ccc(C)c(Cn2c(=O)cc(C)c3c(C)nn(-c4cccc(F)c4)c32)c1	-19.2%
59	Cc1ccc(C(=O)N2CCCC2C(=O)N2CCCC2c2nc3ccncc3[nH]2)cc1 (configuration not stated)	0.1%
60	Cc1ccn2c(Nc3c(C)cccc3C)c(-c3ccc(Cl)s3)nc2c1	-14.4%
61	CCC(C)NC(=O)C1CCC(CNS(=O)(=O)c2cccc3nsnc23)CC1 (configuration not stated)	-9.0%
62	Cc1ccc(NS(=O)(=O)c2ccc(F)cc2)cc1C	i
63	CC(=O)c1cc(C(=O)NCc2c(C)ncc3c2CCNC3)[nH]n1	-12.0%
64	c1ccc2sc(SN3CCOCC3)nc2c1	0.4%
65	CCc1ccccc1NC(=O)COCc1cc(-c2ccco2)on1	?
66	O=c1n(CCN2CCCN([S+](=O)([O-])c3cccc(C(F)(F)F)c3)CC2)nc2n1CCCC2	1.4%
67	O=C(O)c1ccc(-n2cccc2/C=C2\SC(=O)N(Cc3ccccc3Cl)C2=O)cc1	i
68	CCCCN(CC)C(=O)c1c[nH]c2ccc(S(=O)(=O)N(C)c3ccc(Cl)cc3)cc2c1=O	-22.2%
69	Cc1ccc(C(=O)N2CC[C@H](N3CCN(C)CC3)[C@H](CCCO)C2)cc1C	4.6%
70	Cc1cc(C)n(CCc2nc3c4ccccc4nc(N4CCN(c5ccc(F)cc5)CC4)n3n2)n1	-9.7%
71	CCOC(=O)c1ccc(-c2ccc(/C=C(\C#N)C(=O)Nc3cccc(C)c3)o2)cc1	-17.8%
72	Cc1cccc(N2CCN(C(=O)c3oc(=O)c4ccccc4c3-c3ccccc3)CC2)c1C	11.0%
73	O=c1cc(-c2cccc(O)c2)oc2c(O)c(O)ccc12	?
74	Cn1c(CN2CCOCC2)nnc1C1CCCN(C(=O)c2cc[nH]c2)C1 (configuration not stated)	0.9%
75	CC(=O)N1CCC(N2CCC[C@H]2c2nc(-c3ccc(-c4ccncc4)nc3)no2)CC1	i
76	Cc1ccc(-c2noc(CCCC(=O)N3CCC(CCOc4ccccc4F)C3)n2)cc1 (configuration not stated)	-10.4%
77	CCCCCNc1oc(-c2cccc3ccccc23)nc1C#N	i
78	Fc1ccc(Nc2ncnc3c2nc2n3CCCCC2)c(F)c1	-17.7%
79	COc1ccc(-n2ncc3c(NCCC4=CCCCC4)ncnc32)cc1	-25.8%
80	CCc1ccc(NC(=O)Cn2c(=O)n(CCC(=O)NCc3ccc4c(c3)OCO4)c(=O)c3ccccc32)cc1	-21.1%
81	Cc1ccc2nc(-c3ccc(C)o3)c(Nc3ccc4c(c3)OCO4)n2c1	15.8%
82	Cc1ccc(-c2nnc(Nc3ccc(S(N)(=O)=O)cc3)c3ccccc23)cc1S(=O)(=O)N1CCOCC1	-13.1%
83	C#CC1(O)CCC2C3CCC4=CC(=O)CCC4=C3C=CC21C (configuration not stated)	?
84	Cn1c(NC2=NC3(CCCC3)C3=C(CCCC3=O)N2)nc2ccccc21	-14.7%
85	COc1cccc(N2CCN(C(=O)Cn3c(-c4cccs4)cc4ccccc43)CC2)c1	-17.0%
86	c1cncc(CN2CC[C@H](c3nnc(Cc4c[nH]c5ccccc45)o3)C2)c1	-21.8%[39.2 µM]
87	N#Cc1nc(COc2cccc(Cl)c2)oc1NCCc1ccccc1	-11.0%
88	CCOC(=O)N[C@@H]1CC[C@@H]2[C@@H](C1)C[C@H]1C(=O)O[C@H](C)[C@H]1[C@H]2/C=C/c1ccc(-c2cccc(F)c2)cn1	-21.8%
89	Oc1ccc(NCCN2CCCC2)cc1	3.7%[39.2 µM]
90	COc1ccc(/C=C/C(=O)OCCC(C)C)cc1	-13.6%[39.2 µM]

Remaining list, next part:
No.	Molecule	nsP2pro inh
91	O=S1(=O)N=C(Oc2ccc(Br)cc2)c2ccccc21	0.2%
92	Cn1nccc1C(=O)N1C[C@@H](COc2ccccc2)[C@H](C(N)=O)C1	-4.3%
93	COc1cccc(CN2CCn3c(nnc3[C@@H]3C[C@@H](O)CN3Cc3cccnc3)C2)c1	3.9%
94	OCCOCCN1CCN(Cc2cccc(Oc3ccccc3)c2)CC1	11.7%
95	O=C1NCCC[C@@H]1NC(=O)[C@H]1CN(C(=O)NC2CCCCC2)CCN1S(=O)(=O)c1ccc(F)cc1	-7.1%
96	CCn1cc(S(=O)(=O)c2ccc(C)cc2C)c(=O)c2cc(F)c(N3CCCC3)cc21	-12.6%
97	Cc1ccc(-c2nc(NCC(=O)Nc3cccc(C(=O)O)c3)c3ccccc3n2)cc1	i
98	CN1CCN(C(=O)c2nn(C)c3c2CCCC3)CC12CCNC(=O)CC2 (configuration not stated)	-6.0%
99	Cc1ccc(CNC(=O)CCNS(=O)(=O)c2ccc3c(c2)oc(=O)n3C)cc1	-17.6%
100	O=C(O)C(Cl)(Cl)Cl	-20.9%
101	COc1ccc(C2Nc3ccccc3C(=O)N2CCO)cc1COc1c(C)cc(NC(C)=O)cc1C (configuration not stated)	i
102	CC(C)CCNC(=O)N1c2ccccc2CC1c1noc(C2CCOCC2)n1 (configuration not stated)	1.4%
103	Cc1ccc(C(=O)CSc2nc(C)cc(C)c2C(=O)Nc2cccc(C)c2)cc1	-22.4%
104	C[C@@H](NC(=O)C(=O)c1c[nH]c2ccc([N+](=O)[O-])cc12)c1ccccc1	-4.5%
105	COc1ccc(S(=O)(=O)Nc2nc(-c3cccc([N+](=O)[O-])c3)cs2)cc1OC	16.1%
106	CN(C)S(=O)(=O)N1CCc2nn(C)c(=O)n2CC1	-22.6%
107	O[C@H]1[C@H](NCc2ccc(F)cc2)[C@H]2CO[C@H](O2)[C@@H]1N1CCC(Cc2ccccc2)CC1	i
108	CCC(C)/C=C(C)/C=C/C1=CC2=CC(=O)C3(C)OC(C)(O)C(C(=O)OC)C3C2=CO1 (configuration not stated)	?
109	O=C1NCc2ccccc2CC12CCN(Cc1ccc(F)cc1)CC2	0.6%
110	O=C(Nc1ccc(-c2nc3ccccc3[nH]2)cc1)c1ccc2cc[nH]c2c1	i
111	CCc1ccc(-n2c(=O)c3cccnc3n2CC(=O)N(CC)c2cccc(C)c2)cc1	-17.7%
112	CCOc1ccc(NC(=O)NCC2CCCN2c2ccc(OC)cc2)cc1 (configuration not stated)	-1.9%&2.3%&-0.1%

An excerpt. The share of hits here may be higher or lower than overall.
